Vaccinia mCherry: inhibitors of vaccinia virus infection (mCherry reporter signal). Vaccinia virus mCherry reporter infection, fluorescence; about a quarter of the inactives have no number. Potency, µM (titrated, usually from 36.5 µM), inactives show top-dose activity change, negative = inhibition, most hits filed as inhibitors. 310,000 tested, 0.63% active. AID 720579; active = well fitted inhibition curve with a large enough effect; inconclusive = small, poorly fitted or top-dose-only effect; inactive = no such curve, though single readings can be large or run the other way; tested in A549 cells; further: nearly all actives have a fitted effect of over 35% in size; inactives centre near -10
VACV Venus inh: vaccinia inhibition (Venus reporter) | Vaccinia virus Venus reporter expression, fluorescence | Potency, µM (top dose mostly 36.5 µM), for inactives: at the highest dose activity change, negative = inhibition, actives largely listed as inhibitors | 330,000 tested, 0.46% active | AID 720580; active means well fitted inhibition curve with a large enough effect; inconclusive means small, poorly fitted or top-dose-only effect; inactive means no such curve, though single readings can be large or run the other way; tested in A549 cells; further: nearly all actives have a fitted effect of over 30% in size; inactives centre near -10
Active calls of the source: *; i = inactive; u = inconclusive; x = not tested or not shown; & = joins results of further samples; [ ] = remark or other dose. On the % scale 0 is the no-effect control and ±100 the full control effect; potency means the concentration at half of the fitted maximal effect. No enrichment for hits; 0.86% or so of the library scored in one or more.

The line under a structure holds: Vaccinia mCherry, VACV Venus inh
O=C(C1CCN(CCc2ccccc2)CC1)N1CCOCC1
  i, -15%
CS(=O)(=O)N1CCCCC1c1cc(C(=O)Nc2ccc3c(c2)OCO3)no1 (stereo not drawn)
  8%, -4%
O=C(Nc1ccc(Cl)c(C(F)(F)F)c1)C1Cc2c(-c3ccc4c(c3)OCO4)ccnc2O1 (stereo not drawn)
  u, -2%
N/C(=N\OS(=O)(=O)c1ccccc1)c1cccnc1
  -10%, 2%
Cc1cccc(NC(=S)NCc2ccc3[nH]c4c(c3c2)CCCC4)c1
  u, -22%
O=C(Nc1nccs1)[C@@H]1CCCN1C(=O)c1cccs1
  1%, -3%
COc1ccc(OCC(=O)NNC(=O)c2cccc(C)c2)cc1
  i, -8%
O=[N+]([O-])c1ccc2c(c1)C(N1CCOCC1)/C(=C/COc1ccc(F)cc1)O2 (stereo not drawn)
  -14%[1.46 µM], -23%
Cc1ccc(-n2ncc(C(=O)NCc3cccs3)c2C2CCN(C(=O)OC(C)(C)C)CC2)cc1
  -12%, -17%
Cc1ccc(C(=O)c2c3ccc([N+](=O)[O-])cc3[n+]([O-])n2CCCN)cc1
  u, 14µM*
Cc1cccc(C(c2sc3nc(-c4ccco4)nn3c2O)N2CCN(c3ccccc3F)CC2)c1 (stereo not drawn)
  -8%, -7%
O=C(NC(=S)N1CCN(c2ccc(Cl)cc2[N+](=O)[O-])CC1)c1ccco1
  -14%, -6%
COC(=O)CSc1nnc(COc2ccc3ccccc3c2)o1
  i, -6%
COc1ccc(OC)c(N(C(=O)c2ccco2)C(C(=O)NC2CCCC2)c2ccc(N3CCOCC3)cc2)c1 (stereo not drawn)
  1%, 2%
Cc1c(C(=O)C(=O)NCCCn2ccnc2)c2ccccc2n1C
  i, -9%
CN(CC(=O)Nc1ccc(Cl)c(Cl)c1)C(=O)CN1C(=O)NC2(CCCC2)C1=O
  -22%, -14%
Cc1ccc(CN2CCN(CCCn3cnc4c(OCc5ccccc5)ncnc43)CC2)cc1
  u, u
COc1ccc(N(Cc2ccccc2)S(=O)(=O)c2cccc(C(=O)Nc3ccccn3)c2)cc1
  13%, -25%
Cc1onc(-c2ccc(Br)cc2)c1C(=O)Nc1ccc(Br)cc1F
  -6%, -14%
C=CC[C@@H](CC(=O)NCCO)C(=O)N[C@H](COC(=O)[C@H](CC=C)CC(=O)OC(C)(C)C)Cc1c[nH]c2ccccc12
  -5%, -20%
COc1ccc(/C=C(/C#N)C(=O)Nc2cccnc2)cc1OC
  i, -10%
CC(=O)Nc1ccc(NC(=O)CSc2nnc(COc3ccccc3C)n2CC2CCCO2)cc1 (stereo not drawn)
  -28%, -10%
COc1ccccc1C(=O)Nc1ccnn1C1CCN(Cc2ccn[nH]2)CC1
  -15%, -6%
O=C(Nn1c(-c2ccc(Br)cc2)nc2ccccc2c1=O)c1ccncc1
  0%, -2%
O=C(NCCN1CCCC(O)C1)c1cc(COc2cccc(C(F)(F)F)c2)on1 (stereo not drawn)
  i, -8%
Cc1nn(-c2ccc([N+](=O)[O-])cc2)c2c1C(c1ccc(OC(F)F)cc1)N1C(=N2)C(=O)Nc2ccccc21 (stereo not drawn)
  -17%, -8%
CCCCOc1ccc(CNC(=O)C2CCN(c3nnc(-n4cccc4CNc4ccc(C)cc4)s3)CC2)cc1
  u, -30%
CCN(C(=O)COC(=O)c1ccc(O)cc1)c1cccc2ccccc12
  -21%, -10%
O=C(Nc1ccc2c(c1)OCCO2)c1cc2sccc2n1Cc1ccc(F)cc1
  -10%, -14%
O=C(CSc1nnc(NC(=O)c2ccc(S(=O)(=O)N3CCOCC3)cc2)s1)Nc1ccccc1C(F)(F)F
  i, -19%
CC(C)NC(=O)N1CCCN(c2nc3ccc(Cl)cc3s2)CC1
  -17%, -29%
COc1ccc(CN2CCC3(CC2)c2ccccc2[C@@H](NC(=O)c2ccco2)[C@@H]3OC)c(O)c1
  -17%, -3%
CCn1c(COc2ccccc2C)nc2ccccc21
  x, -27%
COc1cccc2cc(C(=O)Nc3cc(Cl)ccc3N3CCOCC3)c(=O)oc12
  i, -3%
CC1=C(C(=O)N(C(C)C)C(C)C)CC(CC(=O)NCCN2CCOCC2)C(=O)N1Cc1ccc(C(C)(C)C)cc1 (stereo not drawn)
  i, -7%
O=C(c1ccccc1-n1cccn1)N1CCc2c([nH]c3ccccc23)C1c1ccccn1 (stereo not drawn)
  u, -18%
Cc1nn(-c2ccccc2)c(N2CCCC2)c1/C=N/NC(=S)Nc1ccccc1C(F)(F)F
  i, -17%
CSc1ccc(CCNC(=O)C(C)n2c(C)c3cnn(-c4ccccc4)c(=O)c3c2C)cc1 (stereo not drawn)
  -11%, 1%
COc1ccc(C(=O)N2CCSCC2)cc1OC1CCN(C(C)=O)CC1
  -11%, -13%
C=CCOc1cccc(CNCc2cccnc2)c1
  i, -20%
COc1ccc(CNS(=O)(=O)c2ccc(N3CCCC3)cc2Br)cc1
  i, -2%
Cc1cc(Cl)ccc1OCCCC(=O)NCc1ccccn1
  i, -8%
CCOC(=O)c1c(C)c(C(=O)NCCc2ccc(OC)cc2)c(C)n1CC
  -5%, 4%
O=c1[nH]c(CN2CC=C(c3ccccc3)CC2)nc2cc(C(F)(F)F)ccc12
  x, 0%
O=C(Cn1cnnn1)NC1CCCN(Cc2ccccc2F)C1 (stereo not drawn)
  i, -7%

Arranged by number of heavy atoms (largest number first): some entries from above.
The line under a structure holds: Vaccinia mCherry, VACV Venus inh
O=C(NCCN1CCCC(O)C1)c1cc(COc2cccc(C(F)(F)F)c2)on1 (stereo not drawn)
  i, -8%
O=[N+]([O-])c1ccc2c(c1)C(N1CCOCC1)/C(=C/COc1ccc(F)cc1)O2 (stereo not drawn)
  -14%[1.46 µM], -23%
O=C(NC(=S)N1CCN(c2ccc(Cl)cc2[N+](=O)[O-])CC1)c1ccco1
  -14%, -6%

Following part
The line under a structure holds: Vaccinia mCherry, VACV Venus inh
COc1ccc(CCNC(=O)COC(=O)Cn2cnc3ccccc32)cc1OC
  i, -11%
CCC(C)[C@H](NC(=O)N1c2ccccc2NC(=O)[C@@H]1C(C)C)C(=O)N[C@@H](Cc1ccccc1)C(=O)O (stereo partly drawn)
  -9%, -3%
CCOc1cc(NC(=S)NCCc2ccccc2)c(OCC)cc1NC(C)=O
  -17%, -7%
CC(NC(=O)C(=O)Nc1c2c(nn1-c1ccccc1)CSC2)c1ccccc1 (stereo not drawn)
  -20%, -22%
Cc1cc(Cl)ccc1OCC(=O)OCC(=O)Nc1ccc(F)c([N+](=O)[O-])c1
  -14%, 0%
COc1ccc(S(=O)(=O)c2cn(Cc3ccccc3)c3ccc(OC)cc3c2=O)cc1
  3%, 6%
O=[N+]([O-])c1cc(S(=O)(=O)N2CCCC2)ccc1N/N=C/c1cccnc1
  -6%, -8%
COc1cccc(CN2CCN(C3CCN(c4ccccc4F)CC3)CC2CCO)c1 (stereo not drawn)
  -14%, -20%
CCCN(CC1CC1)C(=O)CSc1nnc(-c2cc(-c3cccs3)nc3ccccc23)o1
  x, -12%
COc1ccc(C2(NC(C)=O)CCN(Cc3cccnc3)CC2)cc1
  -15%, -9%
COC(=O)c1ccccc1NC(=O)C1CCC(=O)N1S(=O)(=O)c1ccc(C)cc1 (stereo not drawn)
  -4%, -4%
c1ccc(C2c3ccccc3-n3nncc3CN2CC2CCCCC2)cc1 (stereo not drawn)
  u, -16%
COc1ccccc1C(=O)NC(=O)CSc1nnc(SC)s1
  -11%, -8%
O=C(CSc1ccccc1)N1CCN(c2ccc(F)cc2)CC1
  i, 5%
O=C1CC(C(=O)Nc2cc(Cl)ccc2Cl)n2ncnc2N1 (stereo not drawn)
  i, -11%

Next part
molecule | Vaccinia mCherry | VACV Venus inh
Cn1c(O)c(C(=O)c2ccccc2Cl)c(=O)n(C)c1=O | -14% | -10%
CC(C)C1Cc2ccccc2-c2[nH]c(=S)[nH]c(=O)c21 (stereo not drawn) | i | -18%
Cc1ccc(C(=O)N2CC=C(c3ccccc3)CC2)o1 | i | -7%
COc1ccc(CNC[C@H]2O[C@@H](n3ccc(=O)[nH]c3=O)[C@H](O)[C@@H]2O)cc1OC | i | -11%
O=S(=O)(c1ccccc1)N1CCN(Cc2cccc(Cl)c2)CC1 | -14% | -7%
COC(=O)c1ccc(Nc2ncnc3c2cnn3-c2ccccc2)cc1 | -11% | -6%
CC1CC(C)CN(c2nc3c(c(=O)n(C)c(=O)n3C)n2C)C1 (stereo not drawn) | -4% | -11%
COC(=O)c1cccc([N+](=O)[O-])c1CN1CCCC(C(N)=O)C1 (stereo not drawn) | 1% | 3%
Cc1ccc(C(OCC(O)CN2CCCCC2)c2ccccc2)cc1 (stereo not drawn) | -22% | -7%
O=C(CSc1nnc(-c2ccccn2)n1Cc1ccccc1)Nc1ccc2c(c1)OCO2 | -25% | -23%
COc1ccc(NS(=O)(=O)c2ccc3oc(SCC(N)=O)nc3c2)cc1 | 3.5µM* | 4.5µM*
COc1ccccc1-c1ccc(=O)n(CC(=O)NCc2cccs2)n1 | i | -17%
CCn1cc([N+](=O)[O-])c(C(=O)N2CCN(C(=O)c3ccco3)CC2)n1 | -8% | -4%
Cc1cc2nc(-c3ccc(SCc4ccccn4)nc3)[nH]c2cc1C | 1% | -14%
Cc1c(OC(C)C(=O)NCCCN2CCOCC2)ccc2c1oc(=O)c1ccccc12 (stereo not drawn) | -9% | -16%
CCCn1c(=O)c2sccc2n2c(CCCC(=O)Nc3cccc(CC)c3)nnc12 | -8% | -7%
Cc1ccc(CNC(=O)C2CCCN(C(=O)Nc3ccc(F)cc3)C2)cc1 (stereo not drawn) | -2% | 1%
CC(=O)Nc1ccc(NC(=O)COC(=O)C2c3ccccc3Oc3ccccc32)cc1 | -12% | -10%
O=C(c1ccco1)N1CCCC(c2nc3c(nnn3Cc3c(Cl)cccc3Cl)c(=O)[nH]2)C1 (stereo not drawn) | -6% | -13%
O=C(NN1C(=O)C2C3c4ccccc4C(c4ccccc43)C2C1=O)c1ccccc1 (stereo not drawn) | i | -27%
CCOC(=O)c1ccc(N2C(=O)[C@@H](c3ccccc3)[C@H]2c2ccccc2)cc1 | i | -8%
COc1cc(SC)ccc1C(=O)OCC(=O)NCCNC(=O)COC(=O)c1ccc(SC)cc1OC | i | u
CCn1c(SCC(=O)Nc2ccc3c(c2)OCO3)nc2c1c(=O)n(C)c(=O)n2C | -1% | 0%
CC(C)C[C@H](NC(=O)c1nc[nH]c1C(=O)N[C@@H](CCCCNC(=O)OC(C)(C)C)C(=O)OC(C)(C)C)C(=O)OCc1ccccc1 | -20% | u
Cc1ccc(Cl)cc1N1CCN(c2nc3ccccc3c3nc(-c4cccnc4)nn23)CC1 | i | -17%
O=C(NNC(=O)c1ccc([N+](=O)[O-])cc1Cl)c1ccncc1 | u | -11%
O=C(CN(c1ccc2c(c1)OCCO2)S(=O)(=O)c1ccccc1)Nc1ccc2c(c1)OCO2 | -12% | -3%
O=C(C[C@@H]1CC[C@H](NS(=O)(=O)c2ccccc2F)[C@@H](CO)O1)NCCCN1CCOCC1 | -4% | -5%
CCCN(CC(=O)Nc1ccccc1OC)C(=O)CCNC(=O)c1ccccc1OC | i | -11%
CC1=C(C(=O)Nc2ccc(C)cc2C)C(c2ccc(Cl)cc2)n2nc(C(=O)OC(C)C)nc2N1 (stereo not drawn) | -18%&-15% | -7%&-7%
Cc1ccc(SCC(=O)N2N=CCC2c2ccccc2)cc1 (stereo not drawn) | -6% | -17%
Nc1nc(SCc2ccccc2)[nH]c(=O)c1-c1ccccc1 | i | -13%
Cc1ccc(-c2csc(NC(=O)c3c(C)noc3C)n2)s1 | -28% | -8%
CCCC(=O)Oc1c(Sc2ccc(C)cc2)c(C)nn1-c1ccccc1 | -10%[7.34 µM] | -2%[7.34 µM]
COc1ccc(C=NNC(=S)NN=Cc2ccc(OC)c(OC)c2)cc1OC | -24% | -5%
CCN1C(=O)c2ccccc2Sc2ccc(NC(=O)COc3ccc(Cl)cc3)cc21 | u | u
COc1ccc(NC(=O)Nc2cc(-c3cn4cccnc4n3)ccc2C)cc1 | 2% | 12%
CCOC(=O)CNC(=O)Nc1cc(C(=O)NCc2ccccc2OC)ccc1N1CCCC1 | -9% | -3%
O=C(Nc1c2c(nn1-c1ccccc1)CSC2)c1ccc(N2C(=O)CCC2=O)cc1 | i | -11%
CC(=O)N(C)c1ccc(N=C2C(=O)Nc3ccccc32)cc1 | u | -20%
C=CCNC(=O)c1ccccc1NC(=O)C1CCN(S(=O)(=O)c2ccc(SC)cc2)CC1 | -22% | -16%
O=c1cc(N2CCN(c3ccccc3F)CC2)[nH]c(=O)n1-c1ccc(Br)cc1 | i | -12%
CCc1sc(C(=O)N2CCCN(C)CC2)cc1Br | -19% | -5%
COc1ccc(-c2ccc3c(c2)CNCc2cnnn2-3)cc1 | 17% | 6%

For convenience, some entries already given:
molecule | Vaccinia mCherry | VACV Venus inh
CCOC(=O)CNC(=O)Nc1cc(C(=O)NCc2ccccc2OC)ccc1N1CCCC1 | -9% | -3%
O=C(Nc1c2c(nn1-c1ccccc1)CSC2)c1ccc(N2C(=O)CCC2=O)cc1 | i | -11%
CC(=O)N(C)c1ccc(N=C2C(=O)Nc3ccccc32)cc1 | u | -20%
C=CCNC(=O)c1ccccc1NC(=O)C1CCN(S(=O)(=O)c2ccc(SC)cc2)CC1 | -22% | -16%
O=c1cc(N2CCN(c3ccccc3F)CC2)[nH]c(=O)n1-c1ccc(Br)cc1 | i | -12%
CCc1sc(C(=O)N2CCCN(C)CC2)cc1Br | -19% | -5%
COc1ccc(-c2ccc3c(c2)CNCc2cnnn2-3)cc1 | 17% | 6%
